Cruzain Triton: inhibitors of Trypanosoma cruzi cruzain with detergent. Potency, µM, inactives show max response, negative = inhibition, usual class: inhibitors. 200,000 compounds, 0.43% hits. AID 1478. purified cruzain, Z-FR-AMC fluorescence, 0.01% Triton. P25779; active = well fitted curve in the direction sought with a large enough effect; inconclusive = small, poorly fitted or top-dose-only effect, or another doubt; inactive = no such curve, though single readings can be large; an effect the other way counts as inactive or inconclusive;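 also: plate controls were neutral wells for no effect and buffer without enzyme for full effect; nearly all actives have a fitted effect of over 40% in size; top concentration of the series not given in the record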
Target sequence (P25779 123-467 limits assumed): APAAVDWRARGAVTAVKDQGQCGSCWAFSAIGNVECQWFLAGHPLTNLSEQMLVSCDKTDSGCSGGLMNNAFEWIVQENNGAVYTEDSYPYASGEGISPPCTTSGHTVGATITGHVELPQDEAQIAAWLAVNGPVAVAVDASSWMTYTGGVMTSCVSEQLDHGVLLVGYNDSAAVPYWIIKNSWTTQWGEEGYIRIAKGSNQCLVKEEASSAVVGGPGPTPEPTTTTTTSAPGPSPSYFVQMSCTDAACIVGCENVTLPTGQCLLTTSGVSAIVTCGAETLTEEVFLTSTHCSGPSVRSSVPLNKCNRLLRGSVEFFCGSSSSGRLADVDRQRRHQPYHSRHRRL
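Purified cruzain (1.5 nM final) was preincubated with compounds for 15 min at room temperature in 100 mM sodium acetate pH 5.5, 5 mM DTT, 0.01% Triton X-100. Reaction started with 2 uM Z-FR-AMC; AMC fluorescence change over 60 s gave activity.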
RE007 growth inh: less growth of the S. pombe RE007 Vpr strain. S. pombe RE007 Vpr strain, BacTiter-Glo ATP luminescence, 24 h; control for the full effect not named in the record. Potency, µM (highest dose often 92.2 µM), for the others: top-dose activity change, negative = less growth. 360,000 compounds, 0.21% hits; active = well fitted falling curve with a large enough effect; inconclusive = small, poorly fitted or top-dose-only effect; inactive = no such curve, though single readings can be large or run the other way;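 also: % is scaled to controls: 0 for no effect and ±100 for the full control effect; nearly all actives have a fitted effect of over 50% in size; the assay follows cell death caused by Vpr and the record does not say whether a fall means rescue or toxicity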
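Fission yeast strain RE007, carrying one chromosomally integrated HIV-1 vpr copy, was seeded at OD 0.01 in PMG+AL medium with 23 nL pinned compound. After 24 h at 30 °C and 99% humidity, viability was read by BacTiter-Glo luminescence.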
MARV entry inh: inhibitors of Marburg virus binding or cell entry | Marburg virus pseudotyped entry inhibition, cell reporter; control for the full effect not named in the record; about a third of the inactives were read at about 46 µM | Potency, µM (highest dose often 37.8 µM), for the others: top-dose activity change, negative = inhibition, most hits filed as inhibitors | 300,000 compounds, 1.8% hits; active = well fitted inhibition curve with a large enough effect; inconclusive = small, poorly fitted or top-dose-only effect, or effect the other way; inactive = flat fitted curve, though single readings scatter; tested in HEK293 cells; about a fifth of its hits are not listed in these tables; also: % is scaled to controls: 0 for no effect and ±100 for the full control effect; luciferase read-out
LASV entry inh: Lassa virus entry inhibition | Lassa virus pseudotype entry inhibition, cell reporter; control for the full effect not named in the record | Potency, µM (series often up to 37.9 µM), for inactives: at the highest dose activity change, negative = inhibition, most hits filed as inhibitors | 300,000 compounds, 1.2% hits; active means well fitted inhibition curve with a large enough effect; inconclusive means small, poorly fitted or top-dose-only effect, or effect the other way; inactive means flat fitted curve, though single readings scatter; tested in HEK293 cells; also: % is scaled to controls: 0 for no effect and ±100 for the full control effect; nearly all actives have a fitted effect of over 50% in size; luciferase read-out
NS1 function inh: blocks influenza NS1 protein function. Potency, µM (series often up to 46.1 µM), for the others: top-dose activity, positive = more growth. 270,000 compounds, 0.4% hits. S. cerevisiae slowed by influenza A NS1, growth recovery by OD600; also: actives are rising curves; nearly all actives have a fitted effect of over 50% in size
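Recovery from NS1-induced slow growth read by OD600 in budding yeast switched to galactose assay medium (pH 6.0, -URA) at 1:100 dilution. Compound 23 nl per well; the matching strain lacking NS1 serves as control.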
SARS PLpro yeast: inhibitors of SARS-CoV papain-like protease in yeast. 330,000 compounds, 0.19% hits. S. cerevisiae expressing SARS-CoV PLpro, growth rescue; control for the full effect not named in the record. AID 485353. Potency, µM (top dose mostly 32.9 µM), for inactives: at the top dose activity, positive = growth rescue; also: 0% is about no effect; nearly all actives have a fitted effect of over 55% in size; growth read by luminescence after 48 h
Cruzain noTriton: cruzain (T. cruzi) inhibition without detergent; P25779; Potency, µM, inactives show max response, negative = inhibition, actives largely listed as inhibitors; AID 1476; purified cruzain, Z-FR-AMC fluorescence, no detergent; 200,000 compounds, 2.3% hits; active = well fitted curve in the direction sought with a large enough effect; inconclusive = small, poorly fitted or top-dose-only effect, or another doubt; inactive = no such curve, though single readings can be large; an effect the other way counts as inactive or inconclusive;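 also: plate controls were enzyme without inhibitor for no effect and buffer without enzyme for full effect; nearly all actives have a fitted effect of over 40% in size; top concentration of the series not given in the record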
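Purified cruzain at 1.5 nM, pre-incubated 15 min with compound at room temperature in 100 mM sodium acetate pH 5.5, 5 mM DTT, 0.00005% Triton X-100. Reaction started with 2 uM Z-FR-AMC; AMC fluorescence increase over 60 s gives rate.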
2A StopGo: lowers the luciferase signal of an FMDV 2A StopGo reporter; human cells with a luciferase reporter of 2A StopGo recoding; control for the full effect not named in the record; Potency, µM (titrated, usually from 57.9 µM), for the others: at the highest dose signal change, negative = less light; 410,000 compounds, 1.2% hits; AID 1159524; active = well fitted falling curve with a large enough effect; inconclusive = small, poorly fitted or top-dose-only effect; inactive = no such curve, though single readings can be large or run the other way; tested in HEK293T cells; also: % is scaled to controls: 0 for no effect and ±100 for the full control effect; nearly all actives have a fitted effect of over 45% in size; luciferase light after 4 h
Numbers without * were called inactive; ? = inconclusive; / = not tested or not shown; & = joins results of further samples; [ ] = another dose, or the depositor's remark. Unless noted, calls follow the shape of the dose curve; as a rule, active means well fitted rising curve with a large enough effect; inconclusive means small, poorly fitted or top-dose-only effect; inactive means no such curve, though single readings can be large or run the other way. Potency is read from the fitted curve at half-maximal effect.

Values run as follows: Cruzain Triton	RE007 growth inh	MARV entry inh	LASV entry inh	NS1 function inh	SARS PLpro yeast	Cruzain noTriton	2A StopGo
> Cc1ccc(C(=O)CCC(=O)NCc2ccccc2)cc1
→ /	-11%	/	/	6%	-13%	/	-20%
> COc1cccc(CN2CCNC(=O)C2CC(=O)NC2CCOCC2)c1OC (configuration not stated)
→ /	9%	/	/	11%	-8%	/	-6%
> COc1cc(C(=O)N(CCCO)Cc2cc3ccc(C)c(C)c3[nH]c2=O)cc(OC)c1OC
→ -1.8%	8%	4%	5%	-27%	1%	7%	-5%
> CCOc1ccccc1NC(=O)C1Cc2ccccc2CN1S(C)(=O)=O (configuration not stated)
→ 4.8%	3%	3%	10%	-9%	1%	10%	14%
> CC(=O)c1sc(N/N=C\c2ccc(Br)cc2)nc1C
→ -13%	-25%	-1%	?	15%	-12%	?	19%
> CC(=O)c1ccc(N2CCN(C(=O)CN(C)S(=O)(=O)c3cnc[nH]3)CC2)cc1
→ /	9%	?	24%[46.1 µM]	/	3%	/	14%
> COc1ccc(NC(=O)CC2C(=O)N(c3ccc(OC)cc3)C(=O)N2Cc2ccc(OC)c(OC)c2)cc1 (configuration not stated)
→ 4.4%	21%	0%&0%[46.1 µM]	0%[46.1 µM]	8%	0%	?	-17%&-15%
> CCc1ccc(NC(=O)C2CCN(c3ncnc4c3nc3n4CCCCC3)CC2)cc1
→ /	9%	8%[46.1 µM]	-30%[46.1 µM]	-8%	-11%	/	?
> COc1ccc(NC(=O)c2ccc3nc(CCc4ccccc4)oc3c2)c(OC)c1
→ 2.5%	/	/	9%[46.1 µM]	/	/	18%	-12%
> CN1C(C(=O)NCc2ccco2)CC2Cn3c(nc4cc5ccccc5cc43)C21 (configuration not stated)
→ /	6%	/	/	-3%	1%	/	12%
> CCOC(=O)/C(C(=O)Nc1ccccc1Br)=C1/NC(C)(C)Cc2ccccc21
→ -6.7%	3%	-3%	-1%	11%	24%	1%	-11%
> NS(=O)(=O)c1ccc(CNC(=O)c2cnccn2)cc1
→ /	7%	/	/	3%	1%	/	-10%
> CCCCc1nc2ccccc2c(NC(=O)CNC(C)(C)C)c1CCC
→ 1.7%	5%	2%[46.1 µM]	15%	-15%	/	5%	-19%
> Cc1cccc(-c2nnc(SCC(=O)NCc3ccc4c(c3)OCO4)n2C)c1
→ 1.1%	-6%	?	-14%	10%	8%	-11%	-3%
> CC(C)C[C@H](NC(=O)c1nc[nH]c1C(=O)NCC(=O)OCc1ccccc1)C(=O)OC(C)(C)C
→ /	10%	/	/	?	-1%	/	-20%
> C=CCn1c(C)c(C(C)=O)c(N2CCN(c3ccccc3)CC2)nc1=S
→ -6.6%	-10%	-22%	-4%	19%	-2%	-13%	-20%
> O=C(N/C(=C/c1cccs1)c1nc2ccccc2[nH]1)c1ccccc1
→ 13%	16%	2%	-15%	14%	0%	-5%	-16%
> CCOc1cccc2cc(C(=O)NCc3ccc(OC)cc3)c(=N)oc12
→ /	1%	15%	?	12%	-1%	/	1%
> Cc1cccc(Nc2nnc(SC/C(O)=C(\C#N)c3nc4ccccc4[nH]3)s2)c1
→ -1.1%	-16%	14%	17%	13µM*	1%	-7%	18%
> Cc1cc(Oc2cc(N)cc([N+](=O)[O-])c2)ccc1Cl
→ -3.7%	-3%	-10%	?	8%	13%	1%	-6%
> O=C(CCNc1n[nH]c(=O)[nH]c1=O)N/N=C\c1cccc(OCc2ccccc2)c1
→ /	-18%	17%[46.1 µM]	?	/	-1%	/	-17%
> COc1cccc(C(=O)NCCN2CCOCC2)c1
→ 3.5%	16%	17%	?	3%	3%	3%	17%
> CC(=O)Oc1ccc2nc(/C=C/c3ccc(C=O)cc3)oc(=O)c2c1
→ /	-2%	3%[46.1 µM]	28%[46.1 µM]	29%	-7%	/	13%
> CC(C)CC(=O)N=C1SC2CS(=O)(=O)CC2N1CCc1ccccc1 (configuration not stated)
→ 0.8%	7%	11%	-2%	?	?	-5%	1%
> N#Cc1ccc(C(=O)Nc2ccc3c(c2)N(C2CCCC2)C(=O)c2ccccc2S3)cc1
→ -0.2%	/	/	?	/	/	?	0%
> O=[N+]([O-])c1cccc(-c2cc(-c3cc(Br)ccc3O)[nH]n2)c1
→ /	-9%	?	?	-36%	-24%	/	28µM*
> COC(=O)C1C(c2ccc(Cl)cc2)NC(c2ccc(Cl)cc2)C(C(=O)OC)S1(=O)=O (configuration not stated)
→ -16%	-9%	?	-23%	7%	4%	-8%	/
> COCCSc1ncnc2c1oc1nc3c(cc12)COC(C)(C)C3
→ /	0%	2%	/	0%	0%	/	28%
> CCOC(=O)Cc1csc(NC(=O)NC2(C(F)(F)F)Oc3cc(Cl)c(Cl)cc3O2)n1
→ -4.8%	-15%	-16%[46.1 µM]	-18%	-168%	-6%	-7%	-23%
> Cc1cc(C)cc(NC(=O)CN(Cc2ccccc2)S(C)(=O)=O)c1
→ -5.8%	6%	-2%	-7%	-5%[9.22 µM]	28%	11%	-14%
> O=C(Nc1ccc(S(=O)(=O)Nc2nccs2)cc1)c1ccc(N2C(=O)c3ccccc3C2=O)cc1
→ /	-5%	/	/	4%	-1%	/	4%
> COc1ccc(C2C3=C(CCCC3=O)NC3=C2C(=O)c2ccccc23)cc1 (configuration not stated)
→ /	-12%	?	-20%	-8%	-1%	/	-15%
> O=C(COC(=O)/C=C/c1cccc(Cl)c1)NCCc1ccc(Cl)cc1Cl
→ -5.0%	9%	11%	-10%	-15%	3%	3%	-11%
> Cc1ccccc1C(=O)N1CCC(C(=O)Nc2ccc(F)cc2)CC1
→ 3.7%	9%	19%	-6%	-5%	1%	1%	0%
> CCOc1cccc(OCCNC2CCCC2)c1
→ /	9%	-19%	3%	-7%	0%	/	-15%
> Cc1ccc(C(=O)NCC(C)(C)O)cc1
→ 0.4%	8%	-2%&-2%	19%	12%	1%	5%	23%
> CCNS(=O)(=O)c1cc(-c2nnc(Nc3cccc(C(F)(F)F)c3)c3ccccc23)ccc1C
→ -1.0%	/	-23%[46.1 µM]	?	/	/	-2%	18%
> Cc1noc(C)c1C(=O)OCC(=O)NC1CCCCC1C (configuration not stated)
→ /	-7%	8%	6%	/	16%	/	-12%
> COc1cccc(N2CC(O)=C(c3nc4ccccc4c(=O)[nH]3)C2=N)c1
→ -3.2%	5%	?	?	-7%	8%	6%	/
> O=C(c1ccc(S(=O)(=O)N2CCCCCC2)cc1)N1CCC(CN2C(=O)c3cccc4cccc(c34)C2=O)CC1
→ 0.6%	27%	?	?	-9%	1%	?	-29%
> O=S1(=O)CCOC[C@H](CC2CCCCC2)N1Cc1cccc(C(F)(F)F)c1
→ /	-13%	/	/	-40%	-21%	/	0%
> CC(=Nc1ccccc1)C1=C(O)CSC1=O
→ -2.2%	8%	7%	3%	5%	2%	-6%	68%[activator]
> CCN1CCN(Cc2nc3c(c(=O)n(C)c(=O)n3C)n2Cc2cccc3ccccc23)CC1
→ -3.8%	-9%	?	-13%	-20%	4%	-2%	/
> Cc1ccc(S(=O)(=O)N2C3C=CC(C3)C2C(=O)O)cc1 (configuration not stated)
→ 6.7%	-7%	/	/	-2%	9%	-3%	-4%
> CCOc1cccc(/C=C/C(=O)O)c1
→ /	9%	-4%[46.1 µM]	?	/	2%	/	10%
> Cc1cnc(NC2=NCCC2)s1
→ /	-9%	?	16%	/	1%	/	1%
> O=C1c2ccccc2NC(c2cccc([N+](=O)[O-])c2)N1O (configuration not stated)
→ /	8%	/	/	-35%	9%	/	-22%
> COc1ccc(CCn2c(C)cc(C(=O)CN3C(=O)C(=O)N(C4CCCC4)C3=O)c2C)cc1OC
→ /	1%	?	-16%	/	4%	/	-8%
> Cc1cc(C)cc(OCCNC(=O)c2ccc(Br)cc2)c1
→ /	9%	/	/	-3%	0%	/	-1%
> Cc1ccc(C(=O)Oc2oc(-c3ccco3)nc2C=Nc2ccc(Cl)cc2)cc1
→ 4µM*	-16%	?	?	-37%	-28%	13µM*	-11%
> COc1ccc(CC(=O)N2CCc3ccccc32)cc1
→ -4.8%	-21%	?	-29%	-1%	11%	10%	16%
> O=C(NC(Cc1c[nH]c2ccccc12)C(=O)O)c1ccc(F)cc1 (configuration not stated)
→ /	-11%	-13%[46.1 µM]	18%[46.1 µM]	/	6%	/	18%
> CCn1c(C(C)C)n[nH]c1=S
→ /	9%	?	10%[46.1 µM]	/	7%	/	-6%
> O=S1(=O)CC(O)C(NCCO)C1 (configuration not stated)
→ /	4%	5%[46.1 µM]	-16%	/	-5%	/	-12%
> Cc1nnc(N2CCC(C(=O)N3CCCCCC3)CC2)c2nn(-c3ccc(Cl)cc3)c(C)c12
→ /	2%	/	/	6%	-4%	/	-14%
> O=C(Cn1cc2c(n1)CCCCC2)N1CCc2ccccc21
→ -5.0%	-6%	/	/	-4%	-6%	-5%	26%
> CCC(=O)Nc1c2c(nn1-c1ccc(F)cc1)CS(=O)(=O)C2
→ /	-14%	15%[46.1 µM]	19%[46.1 µM]	3%	-1%	/	-15%
> COC(=O)C1=C(C)N=C2SC(C)C(=O)N2C1/C=C/c1ccccc1OC (configuration not stated)
→ -11%	-3%	2%	-14%	?	2%	-23%	-7%
> COC(=O)c1ccc(NC(=O)Nc2ccccc2C)cc1
→ /	-3%	?	22%	/	0%	/	23%
> COc1ccc(C(=O)COC(=O)Cn2c(C)csc2=O)c(OC)c1
→ /	5%	-1%	10%	/	1%	/	43%[activator]
> CSc1cccc(NC(=O)CN(Cc2ccc(Cl)cc2)S(C)(=O)=O)c1
→ -4.8%	-3%	-30%	-18%	-1%	-4%	9%	-9%
> CC(=O)COc1ccc2cc(-c3ccccc3)c(=O)oc2c1
→ /	4%	?	0%[46.1 µM]	7%	-18%	/	-11%

High-throughput results: PubChem, National Center for Advancing Translational Sciences (NCATS)
